# Screens (PubChem BioAssay)
# VDR inhibitor – Inhibitors of the vitamin D receptor (VDR): qHTS; actives 0.93% (n = 400,000); VDR-SRC2-3 peptide fluorescence polarization, 2 h; Potency, µM, inactives show max response, negative = inhibition, hits mostly inhibitors; Vitamin D3 receptor (Homo sapiens), P11473; active means well fitted inhibition curve with a large enough effect; inconclusive means small, poorly fitted or top-dose-only effect, or another doubt; inactive means no such curve, though single readings can be large or run the other way; further: series mostly up to about 120 µM
# Target sequence (P11473 whole entry, looked up): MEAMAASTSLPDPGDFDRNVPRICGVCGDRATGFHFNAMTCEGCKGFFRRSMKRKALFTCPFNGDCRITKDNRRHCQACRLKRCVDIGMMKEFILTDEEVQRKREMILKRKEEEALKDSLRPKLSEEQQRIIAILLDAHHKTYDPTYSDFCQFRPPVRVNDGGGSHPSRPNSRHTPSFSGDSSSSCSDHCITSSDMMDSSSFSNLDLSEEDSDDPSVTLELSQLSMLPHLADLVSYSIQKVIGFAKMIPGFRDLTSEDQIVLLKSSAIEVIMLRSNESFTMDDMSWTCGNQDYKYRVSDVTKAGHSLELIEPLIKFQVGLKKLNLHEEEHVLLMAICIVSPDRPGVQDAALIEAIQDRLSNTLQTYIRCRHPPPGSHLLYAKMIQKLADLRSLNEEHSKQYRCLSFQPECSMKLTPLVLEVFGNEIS
#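 Fluorescence polarization assay of small-molecule disruption of VDR binding to coregulator peptide SRC2-3. Compounds and controls pin-transferred, then read after 2 h incubation at ambient room temperature.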
# * = called active by the depositor; ? = inconclusive. On the % scale 0 is the no-effect control and ±100 the full control effect; potency means the concentration at half of the fitted maximal effect. A portion of the library; the hit share may differ from the screen's.
compound | VDR inhibitor
Cc1nn(CC(O)c2ccccc2)c(C)c1Br (stereo not drawn) | 25%
CC(C)c1ccc(S(=O)(=O)c2nnn3c2nc(NCc2cccs2)c2sccc23)cc1 | 2%
Cc1nn(CC(=O)OCC(=O)c2ccccc2)c(C)c1[N+](=O)[O-] | -6%
COc1ccccc1CNC(=O)CCCn1c(=O)c2ccccc2n(Cc2ccc(F)cc2)c1=O | -4%
Cc1cc(C)c(C)c(S(=O)(=O)N2CCSCC2)c1C | -13%
c1ccc(-c2nc(-c3ccco3)cs2)nc1 | ?
CCOc1ccc(NS(=O)(=O)c2ccc(OC)c(C)c2)cc1 | -1%
CN(C)S(=O)(=O)c1cccc(COC(=O)c2cc([N+](=O)[O-])ccc2N2CCOCC2)c1 | 5%
O=C(CSc1nnc(NC(=O)C2CC(=O)N(c3ccc(F)cc3)C2)s1)NCc1ccco1 (stereo not drawn) | 79µM*
Cc1cccc(NC(=O)CCn2nc(C)c3c(C)n(-c4ccccc4)nc3c2=O)c1C | -2%

# Entries listed so far that have a furan ring, fused or not:
compound | VDR inhibitor
c1ccc(-c2nc(-c3ccco3)cs2)nc1 | ?
O=C(CSc1nnc(NC(=O)C2CC(=O)N(c3ccc(F)cc3)C2)s1)NCc1ccco1 (stereo not drawn) | 79µM*

# Further entries:
compound | VDR inhibitor
COc1ccc(C2CC(=O)c3ccccc3O2)cc1 (stereo not drawn) | -25%
O=c1[nH]ncc2c3ccccc3n(Cc3ccccc3F)c12 | 19%
O=C(O)c1ccc2c(c1)C1C=CCC1C(c1cc3c(cc1Br)OCO3)N2 (stereo not drawn) | ?
CN(CCCNC(=O)CCCOc1cc(=O)n(C)c2ccccc12)Cc1ccccc1 | 21%
CC(C)Cc1nc(Nc2ccc(S(=O)(=O)N3CCCC3)cc2)c2nnn(Cc3ccccc3)c2n1 | -15%
COC(=O)[C@@H]1CCCN1C(=O)CCc1nnc(CCc2c[nH]c3ccccc23)o1 | -16%
Cn1c(=O)c2sccc2n2c(CCC(=O)NCc3ccccc3)nnc12 | ?
Cc1ccc(CNC(=O)c2cc(COc3c(F)cccc3F)on2)s1 | 1%
Cc1ccc(S(=O)(=O)N2CCC(C(=O)N[C@@H](C)C(=O)NCCc3ccccc3)CC2)cc1 | -2%
Cc1cc(C)cc(OCC(=O)Nc2ccc(N3CCN(S(C)(=O)=O)CC3)cc2)c1 | -9%
COc1ccc(C(=O)N2CCN(c3ccc(NC(=O)Cc4ccccc4)cc3)CC2)cc1 | -16%
Cc1ccc(CNc2ccccc2C(=O)O)s1 | -4%
Cc1cc(C(=O)Nc2cccnc2)on1 | 4%
CC1(C)Cc2c(C#N)c(NCCN3CCOCC3)nc(-c3ccccc3)c2CO1 | -11%
Nc1c(C(=O)NC23CC4CC(CC(C4)C2)C3)sc2nc3c(c(C(F)(F)F)c12)CCC3 | 0%
O=S(=O)(c1cccc(-c2nnco2)c1)N1CCOCC1 | -6%
Cc1ccc(C)c(N2CCN(C(=S)NC3CCCCC3)CC2)c1 | -8%
CC/C(C)=N/Nc1nc(-c2cc3cccc(OC)c3oc2=O)cs1 | -17%
COc1ccc(N=C2C(=Nc3ccc(OC)cc3)N(c3ccc(OC)cc3)C(=S)N2C(=O)c2ccc(OC)cc2)cc1 | ?
CCN(CC)S(=O)(=O)c1ccc(C(=O)C(C#N)c2ccccn2)cc1 (stereo not drawn) | 2%
CCOc1cc(/C=C2/C(=N)N3C(=NC2=O)SN=C3S(C)(=O)=O)ccc1OC(=O)c1ccco1 | ?
COC(=O)c1ccc(CSc2nc(N3CCOCC3)c3c(c2C#N)CC(C)(C)OC3)o1 | -30%
CC(C)NC(=S)NC(=O)c1ccc(-c2ccccc2)cc1 | -30%
Cc1cc(C(=O)NNC(=O)c2ccc(Cl)cc2Cl)c(C)o1 | -15%
CC(CN1CCCCCC1)C(=O)NN (stereo not drawn) | 13%
COc1cccc(N2CCN(C(=O)C3CCCN(S(=O)(=O)c4cnc[nH]4)C3)CC2)c1 (stereo not drawn) | -17%
Cc1oc(-c2ccc(Cl)cc2)nc1CS(=O)CC(=O)NCc1ccc2c(c1)OCO2 (stereo not drawn) | 9%
CN(C)N=Nc1ccc(S(=O)(=O)NC(=O)Cc2ccccc2)cc1 | 1%
CCOc1ccc(OCc2ccc(C(=O)NN=Cc3ccc[nH]3)cc2)cc1 | -14%
O=C(CSc1cccs1)NCCc1ccccc1 | -11%
CCC(C)[C@H](NC(=O)N1CCCC1)C(=O)OC (stereo partly drawn) | -4%
Cc1ccc(OCC(O)CN2CCC(Cc3ccccc3)CC2)c(C)c1 (stereo not drawn) | 12%
CC(C)(C)Nc1oc(-c2ccccc2)nc1-c1ccccc1 | -4%
CCc1nn2c(=O)cc(COC(=O)c3cccc(NC(=O)c4ccccc4Cl)c3)nc2s1 | 12%
CC1CCC(C(C)C)C(OCC[N+](C)(C)C)C1 (stereo not drawn) | 3%
Clc1ccc(Cn2cccc2C2=NCCO2)cc1 | 14%
CCN(c1ccccc1)c1nnc(NC(=O)Nc2ccc(Br)cc2F)s1 | 7%
CCCCNC(=S)N(CCN(CC)CC)Cc1cc2cc3c(cc2[nH]c1=O)OCCO3 | ?
O=C(O)c1cccc(NC(=S)N/N=C/c2cccnc2)c1 | 10%
CC(C)(C)OC(=O)N1CCC(C(=O)Nc2ccc(C(=O)NCc3ccccc3)cc2)CC1 | -8%
COc1cc(SC)ccc1C(=O)OCC(=O)NC(=O)NC(C)C | -15%
COc1ccc2c(c1)C(C)=CC(C)(C)N2C(=O)C(C)N1C(=O)c2ccccc2C1=O (stereo not drawn) | -13%
O=C(CNC(c1ccccc1)c1ccccc1)Nc1c(F)cccc1F | -16%
N#CC1=C(N)OC2=C(C(=O)CC(c3ccccc3)C2)C1c1ccc2c(c1)OCO2 (stereo not drawn) | ?
COc1ccccc1C=NN=C(N)C(N)=NN=Cc1ccccc1OC | -5%
Cc1cc(=O)[nH]c(N/N=C/c2ccc(-c3ccc([N+](=O)[O-])cc3)o2)n1 | -23%
CC1CN(CCOc2ccc(F)cc2)CC(C)O1 (stereo not drawn) | 3%
Cc1ccc(S(=O)(=O)N2CCOCC2)cc1NC(=O)CSc1nnnn1C | 7%
O=C(CCNC(=O)c1ccc(Br)cc1)Nc1nc2ccccc2[nH]1 | 13%
O=C(CN1CCN(c2ccccn2)CC1)Nc1cccc(S(=O)(=O)N2CCOCC2)c1 | 3%

# Other results follow:
compound | VDR inhibitor
CCOc1ccc(C(=O)OCCCN(C)C)cc1 | -14%
O=C(CN1C(=O)c2cccc3cccc1c23)Nc1cccnc1 | 7%
COc1cn(CC(=O)Nc2cccc(C)c2C)c(CN2CCCCC2)cc1=O | 9%
COc1cccc(CN2C(=O)CCC2(C)C(=O)NC2CCCC2)c1 (stereo not drawn) | 7%
COc1ccc2c(c1)NC(c1cccnc1)=NC(c1ccc(F)cc1)=N2 | 16%
O=C1NC(=Nc2ccccc2Br)SC1(CO)CO | -19%
CC(=O)N1CCC(N(CCN2CCOCC2)C(=S)Nc2ccc(C)cc2)CC1 | 10%
Cc1noc(C)c1NC(=O)N(C)C[C@H]1Oc2ccc(NC(=O)CCN3CCOCC3)cc2C(=O)N([C@H](C)CO)C[C@@H]1C | 8%
CC(C)n1c(=S)[nH]c2scc(-c3cccs3)c2c1=O | 8%
Cc1ccc(-c2csc3ncnc(SCC(N)=O)c23)cc1 | 8%

# In the list so far, these contain a nitro group on carbon.
compound | VDR inhibitor
Cc1nn(CC(=O)OCC(=O)c2ccccc2)c(C)c1[N+](=O)[O-] | -6%
CN(C)S(=O)(=O)c1cccc(COC(=O)c2cc([N+](=O)[O-])ccc2N2CCOCC2)c1 | 5%
Cc1cc(=O)[nH]c(N/N=C/c2ccc(-c3ccc([N+](=O)[O-])cc3)o2)n1 | -23%

# Following part
compound | VDR inhibitor
O=C(CSC(=S)N1CCCC1)Nc1ncc(Cl)cc1Cl | 3%
CCN(C(C)=O)c1nc(CCl)cs1 | 1%
N/C(=N\OC(=O)CCCN1C(=O)c2ccccc2C1=O)c1ccccn1 | 0%
O=C(Nc1ccc(-c2noc(-c3ccccc3F)n2)cc1)c1cccs1 | -14%
Cc1ccc(NC(=O)C(C)OC(=O)/C=C/c2ccccc2)cc1 (stereo not drawn) | 10%
COC(=O)/C(=C\Nc1cccc(Cl)c1C)c1ncc(C(F)(F)F)cc1Cl | 0%
Cc1ccc(-c2cc(C(=O)NNC(=O)c3csc(N4CCOCC4)n3)c3ccccc3n2)cc1 | 11%
Cc1ccc(C(=O)Oc2ccc(C(=S)N3CCOCC3)cc2)cc1 | ?
Cc1cccc(NC(=S)/N=C(\N)Nc2nc(C)c3cc(C)ccc3n2)c1 | ?
COc1ccc(-c2c(C#N)c(SCc3c(C)noc3C)nc3c2C(=O)CC(C)(C)C3)cc1 | -8%
NC(CSC(c1ccccc1)(c1ccccc1)c1ccccc1)C(=O)O (stereo not drawn) | -14%
O=C(COc1ccc(F)cc1)Nc1nc2c(s1)CCCC2 | 12%
COc1ccc(C(=O)CC(=O)c2ccc(F)cc2)cc1 | -23%
COc1ccccc1NS(=O)(=O)c1cccc(NC(=O)c2cc3ccccc3oc2=O)c1 | -4%
CCOc1ccc(-c2cc(C(=O)NCCCN3CCCC3)c3ccccc3n2)cc1 | -21%
c1ccc(N2CCN(c3ncnc4scc(-c5cccs5)c34)CC2)cc1 | -2%
CC(=O)Nc1ccc(S(=O)(=O)N2CCN(C(=O)N3CCCCC3)CC2)cc1 | 8%
Cc1ccc2c(CN3CCN(c4ccc(Cl)cc4)CC3)cc(=O)oc2c1 | 9%
CSc1ncccc1C(=O)Nc1ccc(F)c(F)c1F | 5%
Cc1oc(-c2ccc(C(F)(F)F)cc2)nc1CN(Cc1ccccn1)C[C@@H]1CCC(=O)N1 | 9%
O=C(c1cc(-c2ccc(F)cc2)on1)N1CCOCC1 | -7%
COc1ccc(NC(=O)C/C(C)=N/NC(=O)c2cnccn2)cc1 | 18%
Cc1nc2c(cc1C(=O)N/N=C/c1ccc(O)c(O)c1)c(=O)n(C)c(=O)n2C | -15%
CCOC(=O)c1ccc(N2CCN(c3cc(C)ccc3C)CC2)c(N)c1 | 4%
COc1ccc(NC(=O)CCc2ccc(OC)c(OC)c2)cn1 | 9%
COc1ccccc1N1CCN(C(=O)C(CCSC)NS(=O)(=O)c2ccc3c(c2)oc(=O)n3C)CC1 (stereo not drawn) | 2%
O=C(NCCCN1CCOCC1)c1cc2c(s1)CCCC2 | 10%
C=CCNC(=S)/C(=C(/[O-])c1ccc([N+](=O)[O-])cc1)[n+]1ccccc1 | 11%
CCc1ccc(OCC(O)CN2CCC(CN3C(=O)c4cccc5cccc(c45)C3=O)CC2)cc1 (stereo not drawn) | 12%
Cc1c(Br)cc(C(=O)NCc2ccco2)c(C)c1C | 8%

# 3 structures already listed, ordered by count of non-hydrogen atoms, descending.
compound | VDR inhibitor
O=C(NCCCN1CCOCC1)c1cc2c(s1)CCCC2 | 10%
O=C(c1cc(-c2ccc(F)cc2)on1)N1CCOCC1 | -7%
Cc1c(Br)cc(C(=O)NCc2ccco2)c(C)c1C | 8%

# Later entries
compound | VDR inhibitor
Cc1ccc(-c2c(C)sc3ncn(CC(=O)N4CCOCC4)c(=O)c23)cc1C | 0%
COc1ccc(OC)c(S(=O)(=O)N2CCC(C(=O)NCc3ccncc3)CC2)c1 | -21%
CC(C)OC(=O)CSc1nnc(-c2ccc(C(C)(C)C)cc2)n1N | ?
Cc1nc(SCC(=O)O)n[nH]1 | -14%
CC1CC(=O)N(CC(=O)Nc2ccc(F)cc2)c2ccccc2S1(=O)=O (stereo not drawn) | 0%
Cc1cc(Nc2cccc(C(F)(F)F)c2)n2nc(C)nc2n1 | 2%
CCc1ccc(Nc2oc(C)cc(=O)c2C(C)=O)cc1 | -3%
O=C1NC[C@H](Cc2ccccc2)N(CC2CCN(CCCC3CCCC3)CC2)C1=O | -4%
O=C(NCc1ccccc1Cl)c1cccc2c1C(=O)c1ccc(-c3ccc(OC(F)(F)F)cc3)cc1S2(=O)=O | 3%
CCc1nnc(NC(=O)CCN(c2ccc(C)cc2)S(=O)(=O)c2ccccc2)s1 | -14%
CCN(CC)CCC(=O)c1ccc(F)cc1 | -7%
Cn1c(CCN2CCN(c3ccc(F)cc3)CC2)nc2cc(NC(=O)c3ccco3)ccc21 | 14%
Cc1ccc(NC(=O)CCSc2nc(-c3ccc4c(c3)OCO4)cc(C(F)(F)F)n2)c(C)c1 | -30%
Cc1ccc(N2C(=O)c3ccccc3C2Nc2ccc(S(=O)(=O)N3CCCCC3)cc2)nc1 (stereo not drawn) | -5%
COc1ccccc1CNCc1cccs1 | 5%
CCOC(=O)C1CCCN(C(=O)CSc2nnc3nc(C)cc(C)n23)C1 (stereo not drawn) | 10%
Cc1nn(-c2ccccc2)c(C)c1NC(=O)COc1ccc(Br)cc1Cl | 1%
Cc1cccc(C)c1NC(=S)N(CCc1ccncc1)C(C)C | -2%
O=C(N/C(=C\c1ccco1)C(=O)N1CCOCC1)c1ccco1 | 11%
Cc1cc(C)c2cc(CN(CC3CCCO3)S(=O)(=O)c3ccc4c(c3)OCCO4)c(=O)[nH]c2c1 (stereo not drawn) | 1%
COc1ccc([N+](=O)[O-])cc1NC(=O)COC(=O)C=C(C)C | -2%
CC1(C)Cc2c(sc(NC(=O)c3ccc(Br)o3)c2C#N)CO1 | 0%
CCn1c(SC(C)C(=O)Nc2ccc3c(c2)OCCO3)nnc1C1CC1 (stereo not drawn) | -9%
